Bioassay records: PubChem, Vanderbilt University
GIRK2 activ = GIRK2 channel activation. P48051. HEK293-GIRK2 thallium flux, Thallos fluorescence. calls only for hits at 25 µM. 63,000 compounds, 0.05% hits;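 active = among the strongest 0.2% of first-round signals and kept after retests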;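 note: first round at about 10 µM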
Target sequence (P48051 whole entry, looked up): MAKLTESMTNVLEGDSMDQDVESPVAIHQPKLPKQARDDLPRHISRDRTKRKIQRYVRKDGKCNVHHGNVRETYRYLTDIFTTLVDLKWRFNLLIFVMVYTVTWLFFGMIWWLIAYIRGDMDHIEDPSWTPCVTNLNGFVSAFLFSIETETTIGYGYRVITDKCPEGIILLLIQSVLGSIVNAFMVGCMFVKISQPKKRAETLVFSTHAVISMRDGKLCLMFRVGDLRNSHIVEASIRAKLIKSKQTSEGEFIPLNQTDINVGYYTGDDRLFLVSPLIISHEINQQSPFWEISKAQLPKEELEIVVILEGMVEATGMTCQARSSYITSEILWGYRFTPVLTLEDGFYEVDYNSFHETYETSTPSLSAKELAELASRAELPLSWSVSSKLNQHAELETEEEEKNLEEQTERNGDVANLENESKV
Calls only; i = inactive. These rows are one share of the data. The share of hits here may be higher or lower than overall.

SMILES	GIRK2 activ
O=C(NCCn1ncc2c(N3CCCC3)ncnc21)c1cc2ccccc2o1	i
NC(=O)CSc1cnn(CC(=O)Nc2ccc3c(c2)OCO3)c(=O)c1Cl	i
CC(C)N1CCC(CNC(=O)c2ccc(Cl)cc2Cl)CC1	i
COc1cc(NC(=O)Cn2nc3ccc(SC4CCCCC4)nn3c2=O)cc(OC)c1	i
O=C(c1ccc(=O)oc1)N1CCN(C2=NN=C(c3ccccc3)CS2)CC1	i
Cc1cc(C)c2c(N)c(C(N)=O)sc2n1	i
CCc1cccc(NC(=O)Cn2cccc(-c3nc(-c4ccccc4C)no3)c2=O)c1	i
Cc1cc(=O)n2c(-c3ccc(NS(=O)(=O)c4c(C)noc4C)cc3)csc2n1	i
COc1ccc(CNC(=O)CSc2nccn2-c2ccc(C(=O)NCc3ccccc3)cc2)cc1	i
Cc1ccc(C)c(S(=O)(=O)NCC(O)c2ccc3c(c2)CCO3)c1 (centres undefined)	i
Cc1ccc2[nH]c3c(=O)n(CCC(=O)NCc4ccc(C)o4)cnc3c2c1	i
Cc1cc2ncc(-c3ccccc3)nc2cc1C	i
O=C(NCCC(O)C1CC1)c1c(F)cccc1Cl (centres undefined)	i
CC(C)CNC(=O)C(=O)c1cn(CC(=O)N2CCOCC2)c2ccccc12	i
C=C(C)Cn1c(=O)c2c(nc3n2CCCN3c2ccccc2OC)n(C)c1=O	i
CCCC(CCC)C(=O)Nc1cccc(-c2csc3nc(C)cc(=O)n23)c1	i
CC(=O)Oc1ccc2oc(-c3ccccc3)c(C(N)=O)c2c1	i
O=C(NCC#CCN1CCCCCC1)c1ccc2c(c1)OCO2	i
Cc1c(C)n2c3c(=O)n(CC(N)=O)c(=O)n(C)c3nc2n1-c1ccccc1	i
C=C1C(=O)OC2/C=C(\CO)CC/C=C(\C=O)C(OC)C(OC(=O)C(C)CC)C12 (centres undefined)	i
O=C(NCC#CCN1CCCC1)c1ccc(-c2ccccc2)cc1	i
Cc1noc(C2CN(Cc3ccccn3)C2)n1	i
CCOc1ccc(-c2n[nH]c(C)c2-c2ccc(OC)c(OC)c2)c(O)c1	i
CCOCCn1c(=O)c2c(nc(-n3nc(C)cc3C)n2C)n(C)c1=O	i
CCOc1ccc(N2C(=O)C3N=NN(CC(=O)Nc4ccc(C)cc4Cl)C3C2=O)cc1 (centres undefined)	i
CC(c1ccccc1)n1c(C2CC(=O)N(c3ccccc3)C2)nc2ccccc21 (centres undefined)	i
COc1cccc(C2NC(=S)NC(C)=C2C(=O)Nc2ccc(Br)cc2)c1OC (centres undefined)	i
O=C(c1ccc2c(=O)nc3c(-c4ccccc4)n[nH]n3c2c1)N1CCN(c2ccccc2)CC1	i
CC1=NN(CCNc2ccc(Cl)cc2)c2nc3c(c(=O)n(C)c(=O)n3C)n2C1C (centres undefined)	i
Cc1nc2c(c(=O)c3ccccc3n2C)c(=O)n1Cc1ccco1	i
COC(=O)C(C)Sc1nnc(NC(=O)c2cn(C)nc2OC)s1 (centres undefined)	i
Cc1ccc(NC(=O)CSc2ncnc3sc(C)cc23)cc1	i
CC1(C)C2CCC1(CS(=O)(=O)Nc1cccc(N3CCCC3=O)c1)C(=O)C2 (centres undefined)	i
O=C(NCCc1ccccc1)Nc1cccc(-c2cnc3n2CCC3)c1	i
c1ccc(C(c2ccccc2)N2CCN(c3ncnc4[nH]ncc34)CC2)cc1	i
Cc1onc(-c2ccccc2Cl)c1C(=O)N1CCc2nc(NC(=O)c3ccco3)sc2C1	i
O=S(=O)(Nc1ccc(CN2CCN(c3ccccn3)CC2)cc1)c1ccc(Cl)cc1	i
O=C(Nc1nc2ccc(Cl)cc2s1)c1csc(Nc2ccccn2)n1	i
COc1ccc(CNC(=O)C2CCN(c3ncccc3S(=O)(=O)N3CCCCC3)CC2)cc1	i
Cc1cccc(-c2csc3c(=O)[nH]c(N4CCC5(CC4)OCCO5)nc23)c1	i
C=CCc1ccccc1OCC(O)CN1CCN(Cc2ccc3c(c2)OCO3)CC1 (centres undefined)	i
Cc1cccc(C)c1NC(=O)CSc1nc2cc(-c3ccccc3)sc2c(=O)n1C	i
COc1ccc(S(=O)(=O)N2CCN(c3cnccn3)CC2)cc1OC	i
COc1cc(NC(=O)COc2cc(C)nc(N3CCCCCC3)n2)cc(OC)c1	i
Cc1noc(-c2ccnc(SCC(=O)Nc3cccc(C(F)(F)F)c3)c2)n1	i
O=C(NCC(F)(F)F)c1nnn(-c2ccc(Br)cc2)n1	i
COc1cccc(/C=C2\SC(=S)N(CCCC(=O)Nc3cccnc3)C2=O)c1	i
CSc1nnc(-c2cccc(S(=O)(=O)N3CCCCC3)c2)o1	i
Cc1nn(-c2ccc(F)cc2)c2ncc(C(=O)NCc3cccs3)c(Cl)c12	i
O=C(CCSc1ccccc1)N1CC(c2nc(C3CC3)no2)C1	i
CCN(C(=O)Cn1cnc2c(-c3ccc(Cl)cc3)csc2c1=O)c1ccccc1	i
O=S(=O)(Cc1ccc(Cl)cc1)c1ccc(NCCCc2ccco2)nn1	i
CCCCS(=O)(=O)N1CC(c2nc3ccccc3[nH]2)C1	i
COc1ccc(S(=O)(=O)N(C)c2ccsc2C(=O)NCc2ccc(SC)cc2)cc1	i
CCCCn1c(C2CCCCC2)nc2oc3ccccc3c(=O)c2c1=O	i
O=C(CSc1nnc(-c2cccc(S(=O)(=O)N3CCCC3)c2)o1)c1ccc(Cl)cc1	i

(next part)
SMILES	GIRK2 activ
CN(C)S(=O)(=O)c1ccc(C(=O)N2CCN(Cc3nc(-c4ccco4)cs3)CC2)cc1	i
CCc1ccc(NC(=O)Cn2cccc(-c3nc(-c4ccccc4)no3)c2=O)cc1	i
CCSc1ccccc1C(=O)N1CCN(CCn2cccn2)CC1	i
O=C(CSc1nncc(-c2ccccc2)n1)N1CCN(c2cccc(Cl)c2)CC1	i
CC(C)Cn1c(=O)c2c(nc3n2CCCN3c2ccc(Oc3ccccc3)cc2)n(C)c1=O	i
CCc1cc2c(Nc3cccc(O)c3)nc(C)nc2s1	i
O=C(NCC#CCN1CCCCC1)c1ccc(-n2cccc2)cc1	i
COc1ccc(C2c3c(oc4ccccc4c3=O)C(=O)N2C)c(OC)c1OC (centres undefined)	i
CN(C)c1cccc(C(=O)N2CCC(Oc3ccc(C(F)(F)F)cn3)CC2)c1	i
O=C(/C=C/c1ccccc1OC(=O)c1ccco1)c1ccccc1	i
O=C(NCCN1CCN(c2ccc(Cl)cc2)CC1)c1ccco1	i
O=C(c1cc(-c2cccs2)[nH]n1)N1CCN(CCn2ccnc2)CC1	i
Cc1nn(C(C)C)c(C)c1-c1cc(C(=O)O)[nH]n1	i
COc1ccc(Cl)cc1C(=O)NCC1(O)CCOc2ccccc21 (centres undefined)	i
CCOC(=O)C1CCN(C(=O)c2cc(=O)c(OCc3ccc(F)cc3)cn2C)CC1	i
CCC(NS(=O)(=O)c1ccc(C)cc1)C(=O)NCc1cccnc1 (centres undefined)	i
O=C(NCc1ccc(C(=O)c2cccs2)s1)c1ccoc1	i
Cn1nc(CNC(=O)c2nc3ccccc3s2)cc1-c1ccco1	i
CSc1cccc(NC(=O)Cn2cccc(S(=O)(=O)N3CCCCCC3)c2=O)c1	i
Cc1noc(C)c1CCC(=O)N1CC2CC1C(=O)O2 (centres undefined)	i
CC(C)CNc1ncc([N+](=O)[O-])c(N)n1	i
COc1ccc(-c2cc3c(SCC(=O)Nc4ccccc4C(F)(F)F)nccn3n2)cc1	i
COc1cc2nc(SCC#N)n3nc(-c4ccccc4)nc3c2cc1OC	i
COc1ccccc1C1C(C(=O)c2cc3ccccc3o2)=C(O)C(=O)N1CCN(C)C (centres undefined)	i
Cc1cccc(NC(=O)CSc2nc3c(sc4ncccc43)c(=O)n2Cc2ccc(F)cc2)c1	i
CCOc1ccc(-c2ncncc2-c2ccc(OC)cc2)c(O)c1	i
O=C(CCCS(=O)(=O)c1ccc(F)cc1)Nc1nc(-c2cc3ccccc3o2)cs1	i
COC(=O)C1=C(CS(=O)(=O)c2ccc(Cl)cc2)NC(=O)NC1c1ccc(O)c(OC)c1 (centres undefined)	i
COc1ccc(-n2nnc(C(=O)N3c4ccccc4CC3C)n2)cc1 (centres undefined)	i
O=C(Nc1cccc2nsnc12)c1ccsc1	i
COCCN(Cc1ccsc1)S(=O)(=O)c1ccc(F)c(Cl)c1	i
Cn1c(=O)c2cc(C(=O)N3CCN(c4cccc(Cl)c4)CC3)sc2n(C)c1=O	i
Cc1cc2oc(=O)cc(CN3CCC(C)CC3)c2cc1O	i
CCOC(=O)CCC(=O)N1CCN(Cc2csc(-c3ccccc3)n2)CC1	i
COc1ccc2cc([C@H](C)C(=O)O)ccc2c1	i
Cn1cc(C(=O)NCC#CCOc2cccc(C(F)(F)F)c2)nn1	i
Cc1cc(C)n(C(=O)c2sccc2S(=O)(=O)N(C)c2ccc3c(c2)OCCO3)n1	i
CC(C)CCN1C(=O)C(C)(C)COc2cc(NC(=O)COc3ccccc3)ccc21	i
Cc1c(C(=O)Nc2ccc3nc(C)n(-c4ccc(F)cc4)c(=O)c3c2)cccc1[N+](=O)[O-]	i
Cc1ccc(C(C)C)c(OCC(O)CNCCO)c1 (centres undefined)	i
Cc1ccnc(Nc2cc(N3CCN(C(=O)Nc4cccc(Cl)c4)CC3)nc(C)n2)c1	i
C=CCn1c(N/N=C\c2cccc(OC)c2O)nc2c1c(=O)n(C)c(=O)n2C	i
O=c1c(-c2ccc(Cl)cc2)coc2c3c(ccc12)OCN(Cc1ccncc1)C3	i
CC(C)(C)C(=O)N1CCN(CC(O)C2CC2)CC1 (centres undefined)	i
CC(C)c1ccc(NC(=O)Cn2cccc(S(=O)(=O)N3CCOCC3)c2=O)cc1	i
CCSc1ccccc1C(=O)N1CCN(c2nnc(SCC(=O)NC)s2)CC1	i
COc1ccc(Cl)cc1S(=O)(=O)N1CCN(C)CC1	i
COc1ccc(CCNC(=O)NCc2cc(-c3ccncc3)n(C)n2)cc1	i
CS(=O)(=O)c1ccc(N2CCN(c3ccccc3F)CC2)c([N+](=O)[O-])c1	i
O=C(Cn1cnc2c(-c3ccncc3)nsc2c1=O)NCCC1=CCCCC1	i
O=c1ccn(-c2ccccc2)nc1-c1nc(-c2ccc(C(F)(F)F)cc2)no1	i
Cn1cccc1CN(Cc1cccs1)C(=O)Nc1c(F)cccc1F	i
O=C(NCc1ccccc1Cl)c1cn(-c2cc(N3CCOCC3)ncn2)cn1	i
Cc1ccc(Cl)cc1S(=O)(=O)NCC(c1ccc2c(c1)CCO2)N(C)C (centres undefined)	i
Cc1cc(CN2CCC(CNC(=O)Nc3ccc4c(c3)OCO4)CC2)c(C)o1	i
CC(C)c1ccc(OCC(=O)Nc2ccc(-n3nnn(C)c3=O)cc2)cc1	i

(cont.)
SMILES	GIRK2 activ
O=C(CN1CCc2nc(NC(=O)c3ccccn3)sc2C1)NC1CCCC1	i
CC(Cc1ccco1)NC(=O)C(=O)NC1CCCCC1 (centres undefined)	i
COc1ccc(Cl)cc1C(=O)Nc1cnc(-n2cccn2)nc1	i
Cc1ccc(-n2ncc3c(C)nnc(SCC(=O)NCC4CCCO4)c32)cc1 (centres undefined)	i
COc1cc(=O)c(C(=O)NCc2ccc3c(c2)OCO3)nn1-c1ccc(C)cc1	i
COC(CNS(=O)(=O)c1ccc2c(c1)CCCC2)c1ccsc1 (centres undefined)	i
O=C(Cn1c(=O)n(CCCCC(=O)NC2CCCCC2)c(=O)c2ccccc21)Nc1ccc(F)cc1	i
O=C(NC1CC(=O)N(C2CC2)C1)c1ccc(Br)o1 (centres undefined)	i
CCCCNC(=O)c1ccc(-n2ccnc2SCC(=O)Nc2cc(OC)ccc2OC)cc1	i
CC(Cc1cccs1)NC(=O)NCc1cccs1 (centres undefined)	i
COc1ccccc1NC(=O)Cn1nc2cc(C)nc(-c3ccc(F)cc3)n2c1=O	i
CCCCn1c(SCc2nc(-c3ccccc3OC)oc2C)nc2ccccc2c1=O	i
CCOC(=O)c1ccc(Oc2cn[nH]c2-c2ccc(O)cc2O)cc1	i
CCOc1ccc(S(=O)(=O)Nc2ccccc2C(=O)NCC2CCCO2)cc1 (centres undefined)	i
Cc1nc(NC(=O)c2cc3ccccc3o2)sc1Cc1ccccc1	i
COc1ccc(-c2cnc(CNS(=O)(=O)Cc3ccccc3)[nH]2)cc1	i
O=C(NCc1ccco1)c1coc(NC(=O)C2CC2)n1	i
O=C(c1cc2ccccc2oc1=O)N1CC(Oc2nc3c(C(F)(F)F)cccc3s2)C1	i
COc1cc(NC(=O)Nc2ccc(-c3nc4ccccc4o3)cc2)cc(OC)c1OC	i
